# Source: PubChem BioAssay (National Center for Advancing Translational Sciences (NCATS))
# MARV entry inh – blocks Marburg virus binding to or entry into cells; AID 540276; Potency, µM (doses to about 37.8 µM), for the others: at the top dose activity change, negative = inhibition, hits mostly inhibitors; hit rate 1.8% among 300,000; Marburg virus pseudotyped entry inhibition, cell reporter; control for the full effect not named in the record; about a third of the inactives were read at about 46 µM; active = well fitted inhibition curve with a large enough effect; inconclusive = small, poorly fitted or top-dose-only effect, or effect the other way; inactive = flat fitted curve, though single readings scatter; tested in HEK293 cells; about a fifth of its hits are not listed in these tables; further: on the % scale 0 is the no-effect control and ±100 the full control effect; luciferase read-out
# Cruzain inh noDet – inhibitors of Trypanosoma cruzi cruzain without detergent. purified cruzain, Z-FR-AMC fluorescence, no detergent. Potency, µM, for the others: max response, negative = inhibition, most hits filed as inhibitors. hit rate 2.3% among 200,000. P25779; active means well fitted curve in the direction sought with a large enough effect; inconclusive means small, poorly fitted or top-dose-only effect, or another doubt; inactive means no such curve, though single readings can be large; an effect the other way counts as inactive or inconclusive;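 further: plate controls were enzyme without inhibitor for no effect and buffer without enzyme for full effect; nearly all actives have a fitted effect of over 40% in size; top concentration of the series not given in the record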
# Target sequence (P25779 123-467 limits assumed): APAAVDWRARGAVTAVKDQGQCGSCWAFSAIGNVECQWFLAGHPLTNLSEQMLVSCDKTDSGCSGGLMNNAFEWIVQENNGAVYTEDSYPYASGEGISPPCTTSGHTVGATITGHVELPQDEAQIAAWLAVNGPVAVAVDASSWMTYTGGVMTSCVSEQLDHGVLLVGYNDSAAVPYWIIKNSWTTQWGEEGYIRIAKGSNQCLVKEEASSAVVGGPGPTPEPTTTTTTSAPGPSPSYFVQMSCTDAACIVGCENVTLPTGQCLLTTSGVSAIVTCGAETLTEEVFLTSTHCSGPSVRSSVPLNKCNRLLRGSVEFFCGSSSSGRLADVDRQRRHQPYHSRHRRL
#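 Purified cruzain at 1.5 nM, pre-incubated 15 min with compound at room temperature in 100 mM sodium acetate pH 5.5, 5 mM DTT, 0.00005% Triton X-100. Reaction started with 2 uM Z-FR-AMC; AMC fluorescence increase over 60 s gives rate.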
# NS1 function inh – influenza NS1 inhibition; AID 2326; hit rate 0.4% among 270,000; S. cerevisiae slowed by influenza A NS1, growth recovery by OD600; Potency, µM (titrated, usually from 46.1 µM), for inactives: at the top dose activity, positive = more growth; further: actives are rising curves; nearly all actives have a fitted effect of over 50% in size
#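 A cell-based growth assay was used: compounds that relieve NS1-induced slow growth of budding yeast raise OD600. Assay medium was yeast nitrogen base with ammonium sulphate and -URA supplement, pH 6.0, with 2% galactose.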
# StopGo reporter – lowers the luciferase signal of an FMDV 2A StopGo reporter. human cells with a luciferase reporter of 2A StopGo recoding; control for the full effect not named in the record. Potency, µM (series often up to 57.9 µM), inactives show top-dose signal change, negative = less light. hit rate 1.2% among 410,000; active = well fitted falling curve with a large enough effect; inconclusive = small, poorly fitted or top-dose-only effect; inactive = no such curve, though single readings can be large or run the other way; tested in HEK293T cells; further: on the % scale 0 is the no-effect control and ±100 the full control effect; nearly all actives have a fitted effect of over 45% in size; luciferase light after 4 h
# Cruzain Triton – blocks cruzain activity in presence of Triton detergent | P25779 | purified cruzain, Z-FR-AMC fluorescence, 0.01% Triton | Potency, µM, for inactives: max response, negative = inhibition, actives largely listed as inhibitors | hit rate 0.43% among 200,000 | AID 1478; active means well fitted curve in the direction sought with a large enough effect; inconclusive means small, poorly fitted or top-dose-only effect, or another doubt; inactive means no such curve, though single readings can be large; an effect the other way counts as inactive or inconclusive;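 further: plate controls were neutral wells for no effect and buffer without enzyme for full effect; nearly all actives have a fitted effect of over 40% in size; top concentration of the series not given in the record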
#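 Steps: dispense cruzain (1.5 nM final) in acetate buffer pH 5.5 with DTT and 0.01% Triton X-100; pin-transfer compounds; incubate 15 min RT; add Z-FR-AMC (2 uM final); read fluorescence every 30 s, using the 60 s intensity change.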
# LASV entry inh – blocks Lassa virus binding to or entry into cells; hit rate 1.2% among 300,000; Potency, µM (highest dose often 37.9 µM), for the others: at the highest dose activity change, negative = inhibition, actives largely listed as inhibitors; Lassa virus pseudotype entry inhibition, cell reporter; control for the full effect not named in the record; active means well fitted inhibition curve with a large enough effect; inconclusive means small, poorly fitted or top-dose-only effect, or effect the other way; inactive means flat fitted curve, though single readings scatter; tested in HEK293 cells; further: on the % scale 0 is the no-effect control and ±100 the full control effect; nearly all actives have a fitted effect of over 50% in size; luciferase read-out
# RE007 growth inh – less growth of the S. pombe RE007 Vpr strain. Potency, µM (series often up to 92.2 µM), for the others: at the top dose activity change, negative = less growth. S. pombe RE007 Vpr strain, BacTiter-Glo ATP luminescence, 24 h; control for the full effect not named in the record. hit rate 0.21% among 360,000; active = well fitted falling curve with a large enough effect; inconclusive = small, poorly fitted or top-dose-only effect; inactive = no such curve, though single readings can be large or run the other way;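 further: on the % scale 0 is the no-effect control and ±100 the full control effect; nearly all actives have a fitted effect of over 50% in size; the assay follows cell death caused by Vpr and the record does not say whether a fall means rescue or toxicity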
#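 Fission yeast RE007 carrying one integrated HIV-1 vpr copy, seeded at OD 0.01 in PMG+AL medium with 23 nL pinned compound. Grown 24 h at 30 degrees; viability read by BacTiter-Glo luminescence after 5 min.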
# SARS PLP yeast – SARS-CoV PLP inhibition in yeast | S. cerevisiae expressing SARS-CoV PLpro, growth rescue; control for the full effect not named in the record | Potency, µM (doses to about 32.9 µM), without a hit: at the highest dose activity, positive = growth rescue | hit rate 0.19% among 330,000 | AID 485353; further: 0% is about no effect; nearly all actives have a fitted effect of over 55% in size; growth read by luminescence after 48 h
# An asterisk follows results filed as active; u = inconclusive; x = not tested or not shown; & = joins results of further samples; [ ] = dose if it differs, or a comment. Unless noted, the call rests on the fitted dose curve; in most records, active means well fitted rising curve with a large enough effect; inconclusive means small, poorly fitted or top-dose-only effect; inactive means no such curve, though single readings can be large or run the other way. Potency means the concentration at half of the fitted maximal effect. Rows were taken by chance; overall some 4.5% were active at least once.
SMILES,MARV entry inh,Cruzain inh noDet,NS1 function inh,StopGo reporter,Cruzain Triton,LASV entry inh,RE007 growth inh,SARS PLP yeast
CC(=O)C1=C(Nc2ccccc2)CC(C)(O)C(C(C)=O)C1c1ccccc1 (centres undefined),u,x,-2%,8%,x,19%,1%,1%
O=C(O)CNC(=O)/C(=C/c1ccco1)NC(=O)/C=C/c1ccccc1,u,2%,18%,-9%,-6.3%,4%,-17%,21%
O=C(CNC(=O)c1ccc(Cl)cc1)Nc1ccc(Br)cc1C(=O)c1ccccc1,u,16%,4%,-25%,-4.2%,3%,-6%,u
CCCCCOc1ccc(NS(C)(=O)=O)cc1,23%,-2%,-12%,42%[activator],-4.7%,9%,27%,-5%
Cc1nc(-c2ccccc2)sc1CCNC(=O)C(=O)Nc1ccc2c(c1)OCO2,x,-6%,x,-24%,2.4%,0%[46.1 µM],x,x
CCOC(=O)c1ccc(NC(=O)C2CC(=O)N=C(N)S2)cc1 (centres undefined),x,x,4%,36%[activator],x,x,16%,8%
C=CC1CN2CCC1CC2c1[nH]c2ccccc2c1CCO (centres undefined),-40%,-4%,-8%,-15%,-2.4%,0%,-2%,-5%
COc1cc(Cl)c(C)cc1NC(=O)CC(c1ccc(F)cc1)N1Cc2ccccc2C1=O (centres undefined),x,3%,x,-14%,-3.9%,3%[46.1 µM],x,x
COc1cc(C#N)c(NC(=O)CN2CCC(C(N)=O)CC2)cc1OC,u,x,x,3%,x,10%[46.1 µM],6%,-1%
CCc1cccc2sc(N3CCN(C(=O)C4CC4)CC3)nc12,x,u,x,-28%,-8.0%,u,x,x
Cc1ccc(NC(=O)CSc2ncnc3ccccc23)cc1S(=O)(=O)N1CCCCCC1,u,-10%,20%,8.9µM*,-4.7%,0%,-13%,6%
CCN(CC)c1ccc([N+](=O)[O-])cc1C(=O)O,2%,8%,-1%,-11%,0.5%,10%,2%,5%
COCCNC(=O)Cn1nc(-c2ccc(C)cc2)c2ccccc2c1=O,0%[46.1 µM],0%,-3%,-8%&-18%,-1.3%,-8%[46.1 µM],-1%,-1%
Cc1ccc(C(=O)NNC(=O)c2ccncc2)cc1S(=O)(=O)N1CCOCC1,-17%,x,x,-12%,x,1%,-11%,-3%
CCCOc1ccc([N+](=O)[O-])c(N)c1,1%,-10%,2%,2%,-4.2%,-1%,-7%,-4%
CCN(CC)S(=O)(=O)c1cc(C(=O)Oc2cccc(-c3cnc4ccccc4n3)c2)ccc1Br,-21%,-17%,22%,-8%,2.2%,u,-7%,-4%
O=C(COc1ncnc2ccccc12)N1CCN(C(=O)c2ccco2)CC1,-4%,-9%,0%,-10%,-1.9%,10%,-3%,2%
CCOc1ccc(Nc2nc(N)nc(CSC(=S)N3CCOCC3)n2)cc1,x,x,3%,13%,x,x,6%,1%
O=C1OCCN1N=Cc1ccco1,u,x,x,-7%,x,21%[46.1 µM],-10%,x
CCOC(=O)Cc1csc(SCC(=O)NC2CCCC(C)C2C)n1 (centres undefined),-2%,6%,-5%,-19%,4.4%,8%,1%,11%
COC(=O)c1ccc(Cn2nc(-c3ccc(C)c(C)c3)ccc2=O)cc1,-4%&11%[46.1 µM],17%,-2%,1%&-3%,-2.5%,17%&-1%[46.1 µM],-11%,-1%
O=C(Nc1ccc(Oc2cccnc2)cc1)C1CCN(Cc2ccccc2)CC1,u,x,-8%,0%,x,7%,-11%,3%
CCCC1(C(=O)OCC)NC(c2ccc(O)cc2)C2C(=O)N(c3ccc4c(c3)OCCO4)C(=O)C21 (centres undefined),-26%,4%,2%,x,1.3%,-17%,-14%,4%
O=C(COC(=O)CSc1ccc([N+](=O)[O-])cc1)NCCc1ccccc1,u,x,x,2%,x,16%,13%,-9%
COc1ccc(CNC(=O)C(C)N2CCN(S(=O)(=O)c3ccccc3F)CC2)cc1 (centres undefined),4%,x,x,-24%,x,-6%,-11%,1%
O=C(CSc1nccn1Cc1ccccc1)NCc1ccccc1Cl,x,12%,x,-9%,-7.3%,22%[46.1 µM],x,x
Cc1cc(Br)ccc1NC(=S)NC1CCCC1,-1%[46.1 µM],x,-90%,32%[activator],x,-13%[46.1 µM],14%,-4%
Cc1cc(C)c(S(=O)(=O)c2c(C)cccc2C)c(OCC(C)C)n1,u,2%,-39%,u,-1.0%,23%,-1%,-26%
Cc1ccc(OCCN2C(=O)c3ccccc3C2=O)c(C)c1,-3%,-6%,6%,19%,-7.3%,-5%,-2%,-5%
Cc1ccc2c(c1)N(CCC(=O)NCc1ccccc1Cl)C(=O)CO2,-2%[46.1 µM],-21%,x,-1%,-3.6%,2%[46.1 µM],x,x
COc1ccccc1CN1CC(C(=O)NCCN(C)CCc2ccccc2)CCC1=O (centres undefined),u,x,-9%,13%,x,5.6µM*,-1%,-3%
CCn1c(=O)cc(OCC(=O)N(C)c2ccc(OC)cc2)c2ccccc21,-14%[46.1 µM],-8%,x,-15%,1.9%,-1%[46.1 µM],x,x
O=C(c1ccc(S(=O)(=O)Nc2ccccc2)cc1)N1CCCC1,11%[46.1 µM],x,x,-12%,x,-13%,1%,0%
O=C(COc1ncnc2ccccc12)Nc1cc([N+](=O)[O-])ccc1F,-3%[46.1 µM],x,-4%,-17%,x,-5%,-1%,1%
N/C(=N\OC(=O)c1ccc(F)cc1)c1cccc([N+](=O)[O-])c1,x,x,-30%,73%[activator],x,x,-5%,-7%
COc1ccc(-c2ncccc2OC(=O)C23CC4CC(CC(C4)C2)C3)cc1OC,-14%,u,19%,-2%,-11%,-21%,1%,u
COC(=O)c1c(NC(=O)c2cccc([N+](=O)[O-])c2)sc(C(N)=O)c1C,u,x,5%,u,x,u,3%,0%
COc1ccc(N2CCN(S(=O)(=O)CCNC(=O)COc3ccccc3)CC2)cc1,12%,x,x,-10%,x,-21%,-13%,-2%
O=C1COc2ccc(S(=O)(=O)CCC(=O)N3CCN(c4cccc(C(F)(F)F)c4)CC3)cc2N1,u,x,4%,u,x,u,-1%,0%
Cc1cc(C)cc(N(C(=O)c2ccc(Br)o2)C2C=CS(=O)(=O)C2)c1 (centres undefined),4%[46.1 µM],x,x,-19%,x,u,-6%,0%
O=S(=O)(c1cc(F)ccc1F)N1CCN(C2CCCCC2)CC1,u,x,7%,-13%,x,-2%,-4%,0%
O=C(CN1C(=O)NC2(CCCC2)C1=O)Nc1cccc(-c2nnc3n2CCCCC3)c1,u,6%,-2%,-17%,1.7%,-6%,-6%,1%
Cc1cc(OCC(=O)N2CCC(O)CC2)c2c(C)cc(=O)oc2c1,x,x,-1%,-1%,x,x,9%,2%
Cc1ccc(C(=O)COc2cccc(NC(=O)c3ccco3)c2)cc1,0%,7%,-10%,-28%,-3.9%,1%,2%,-14%
COc1ccc(-c2n[nH]c3c2CN(C(=O)c2ccccc2)CC3)cc1,x,x,11%,6%,x,x,8%,-4%
CCOC(=O)N1CCN(S(=O)(=O)c2ccc3c(c2)SCC(=O)N3)CC1,u,5%,u,u,4.3%,-6%,-12%,6%
Cc1cc(OCC(=O)N2CCC(C(=O)NCC(C)C)CC2)c2c3c(c(=O)oc2c1)CCCC3,6%[46.1 µM],x,-4%,u,x,18%[46.1 µM],10%,8%
Cc1ccc(Nc2nnc(SCC(=O)Nc3ncc(S(=O)(=O)c4ccc([N+](=O)[O-])cc4)s3)s2)cc1,-14%,7.9µM*,20%,-6%,-1.3%,u,18%,13%
CCOC(=O)c1cnc2c(c(C)nn2C)c1Oc1ccc(Cl)cc1,u,u,-34%,u,-2.5%,-10%,-1%,-31%
Cc1ccccc1N1CC(C(=O)Nc2nnc(SCC(=O)Nc3nccs3)s2)CC1=O (centres undefined),u,-28%,23%,-20%,-11%,4%,5%,-16%

# More results
SMILES,MARV entry inh,Cruzain inh noDet,NS1 function inh,StopGo reporter,Cruzain Triton,LASV entry inh,RE007 growth inh,SARS PLP yeast
O=C(NCc1cccc(Br)c1)C1CC(c2ccccc2C(F)(F)F)=NO1 (centres undefined),x,x,-6%,-5%,x,x,-22%,-4%
O=S(=O)(NCc1ccccn1)c1ccccn1,x,x,8%,-8%,x,x,9%,8%
COc1ccc2nc(SCC(=O)Nc3ccc(S(=O)(=O)Nc4onc(C)c4C)cc3)[nH]c2c1,-1%[46.1 µM],-12%,8%,-12%,-6.7%,20%,7%,1%
CCOC(=O)N1CCC(NC(=O)c2cnn(-c3ccc(OC)cc3)c2C2CCN(C(=O)OC(C)(C)C)CC2)CC1,x,u,x,4%,-1.7%,-2%[46.1 µM],x,x
O=C1CCC(=O)N1c1ccccc1-c1ccccc1,-3%,3%,2%,-14%,-0.2%,u,4%,3%
NC1=NC(c2ccc(Cl)cc2)C(C(=O)c2ccccc2)N1 (centres undefined),x,x,4%,-28%,x,x,13%,1%
O=C(CN(Cc1ccccc1)C(=O)CNS(=O)(=O)c1ccc(F)cc1)NCc1ccco1,-4%[46.1 µM],x,4%,1%,x,-7%,-12%,0%
Nc1ccccc1-c1nnc(SCc2ccccc2F)[nH]c1=O,4%,1%,-110%,-8%,1.3%,15%,-28%,-23%
CC(C)C1N(S(=O)(=O)c2ccccc2)CCN1S(=O)(=O)c1ccccc1,-10%,-9%,-52%,-10%,-4.7%,-1%,1%,u
COc1ccc(-n2cc(C(=O)Nc3cc([N+](=O)[O-])ccc3OC)c3ccccc3c2=O)cc1,26%,5%,22µM*,-21%,-4.2%,7%,16%,19%
Cc1ccc(Nc2nc(N)nc(CN3CCN(Cc4ccc5c(c4)OCO5)CC3)n2)cc1,u,-15%,2%,-1%,1.5%,6%,10%,-1%
Nc1cc(-c2ccc(Br)cc2)nn1Cc1ccccc1,-24%[46.1 µM],x,u,-11%,x,u,47%,-1%
Cc1ccc(CCC(=O)Nc2ccccc2C(=O)O)o1,x,x,5%,36%[activator],x,x,-7%,-2%
